A1 apoptosis 2 = compounds inhibiting A1, read as caspase activation. MEF A1-2A-BIM cells, caspase-Glo luminescence, 3 h; percent of clofoctol response, DMSO zero. caspase activation, % (concentration not given with the values). 24,000 tested, under 10 active. AID 2465; in the data active = caspase activation above about 5.9%;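 note: wells of about 30 µL received 50 nL stock; the first replicate is given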
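Evaluation: Caspase-3/7 activity from luminescence increase | Assay system: A1-2A-BIM mouse embryonic fibroblasts | Quantity: 2500 MEF cells/well | Medium: RPMI-1640 plus 10% FBS | Detection: Caspase-Glo 3/7 luminescence, 1 h at room temperature | Dosing: 50 nL compound per well, pinned | Timing: Cells settled overnight, compound exposure 3 h at 37 °C, 5% CO2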
* marks the source's active call; other numbers are inactive results. A portion of the library; count on the stated rates, not on these rows.

mol	A1 apoptosis 2
Cc1noc(C)c1S(=O)(=O)Nc1ccc2c(c1)C(=O)N([C@@H](C)CO)C[C@H](C)[C@H](CN(C)S(C)(=O)=O)OCCCC[C@@H](C)O2	-0.1
C[C@H](CO)N1C[C@H](C)[C@H](CN(C)Cc2ccc(C(=O)O)cc2)Oc2c(NC(=O)Nc3ccc(C(F)(F)F)cc3)cccc2C1=O	-1.1
Cc1noc(C)c1NC(=O)N(C)C[C@@H]1OCCCC[C@H](C)Oc2ccc(NS(=O)(=O)c3cn(C)cn3)cc2C(=O)N([C@H](C)CO)C[C@@H]1C	-0.8
C[C@@H]1CN([C@H](C)CO)C(=O)c2cccc(NS(=O)(=O)c3ccccc3)c2O[C@@H]1CN(C)C(=O)Nc1cccc2ccccc12	0.8
Cc1noc(C)c1S(=O)(=O)Nc1ccc2c(c1)C(=O)N([C@@H](C)CO)C[C@H](C)[C@@H](CN(C)Cc1ccc(C(F)(F)F)cc1)OCCCC[C@@H](C)O2	-0.5
C[C@H]1CN([C@@H](C)CO)C(=O)c2cccc(NC(=O)C3CCOCC3)c2O[C@H]1CN(C)Cc1ccc2c(c1)OCO2	0.1
Cc1noc(C)c1S(=O)(=O)Nc1ccc2c(c1)CC(=O)N([C@@H](C)CO)C[C@@H](C)[C@H](CN(C)C(=O)Nc1ccc(F)cc1)O2	0.9
C[C@@H]1CN([C@@H](C)CO)C(=O)Cc2cc(NC(=O)CCC(F)(F)F)ccc2O[C@H]1CN(C)S(=O)(=O)c1ccccc1	0.8
Cc1noc(C)c1S(=O)(=O)N(C)C[C@H]1Oc2ccc(NC(=O)CCCN(C)C)cc2C(=O)N([C@H](C)CO)C[C@@H]1C	-0.5
C[C@@H]1CN([C@H](C)CO)C(=O)c2cc(N(C)C)ccc2O[C@H]1CN(C)Cc1ccccc1	-0.4
C[C@H]1CN([C@@H](C)CO)C(=O)c2cccc(NC(=O)Nc3ccc4c(c3)OCO4)c2O[C@@H]1CN(C)C(=O)Nc1ccc2c(c1)OCO2	0.8
C[C@H](CO)N1C[C@H](C)[C@@H](CN(C)S(=O)(=O)c2ccccc2)OCCCC[C@H](C)Oc2ccc(NC(=O)NC3CCCCC3)cc2C1=O	0.2
C[C@@H]1CCCCO[C@H](CN(C)C)[C@H](C)CN([C@H](C)CO)C(=O)c2cc(NC(=O)NC3CCCCC3)ccc2O1	0.7
C[C@@H]1CCCCO[C@@H](CN(C)C(=O)CCCN(C)C)[C@@H](C)CN([C@@H](C)CO)C(=O)c2cc(NC(=O)C3CCCCC3)ccc2O1	-0.3
C[C@H](CO)N1C[C@H](C)[C@@H](CN(C)C(=O)NC2CCCCC2)Oc2ccc(NC(=O)NC3CCCCC3)cc2CC1=O	0.3

Later entries
mol	A1 apoptosis 2
C[C@@H]1CCCCO[C@H](CN(C)Cc2ccc3c(c2)OCO3)[C@H](C)CN([C@H](C)CO)C(=O)c2cc(NS(=O)(=O)c3ccccc3)ccc2O1	0.4
C[C@H](CO)N1C[C@H](C)[C@@H](CN(C)S(=O)(=O)c2cccs2)Oc2ccc(NC(=O)C3CC3)cc2C1=O	0.6
CC(C)NC(=O)Nc1ccc2c(c1)C(=O)N([C@@H](C)CO)C[C@@H](C)[C@H](CN(C)Cc1ccncc1)OCCCC[C@H](C)O2	-1.0
C[C@@H]1CN([C@H](C)CO)C(=O)c2cc(NC(=O)NC3CCCCC3)ccc2O[C@@H]1CN(C)Cc1ccc(C(=O)O)cc1	-0.9
CC(C)NC(=O)N(C)C[C@@H]1OCCCC[C@@H](C)Oc2ccc(NC(=O)Nc3cccc4ccccc34)cc2C(=O)N([C@@H](C)CO)C[C@@H]1C	1.1
COCCOC(=O)N1C(=O)[C@@]2(c3cc(C#Cc4ccc(OC)cc4)ccc31)[C@H](C(=O)NC[C@H](O)c1ccccc1)[C@H]1C(=O)O[C@H](c3ccccc3)[C@H](c3ccccc3)N1[C@@H]2c1ccc(OCCO)cc1	-0.5
COc1ccc(S(=O)(=O)Nc2ccc3c(c2)CC(=O)N([C@H](C)CO)C[C@H](C)[C@@H](CN(C)S(=O)(=O)c2ccc(OC)cc2)O3)cc1	0.0
COc1ccc(NC(=O)N(C)C[C@H]2OCCCC[C@@H](C)Oc3ccc(NC(=O)Nc4ccc(F)cc4)cc3C(=O)N([C@@H](C)CO)C[C@H]2C)cc1	1.2
C[C@@H]1CN([C@H](C)CO)C(=O)Cc2cc(NC(=O)Cc3cn(C)c4ccccc34)ccc2O[C@H]1CN(C)S(=O)(=O)c1cccs1	-0.9
Cc1noc(C)c1NC(=O)Nc1cccc2c1O[C@H](CN(C)C(=O)Nc1ccccc1)[C@H](C)CN([C@H](C)CO)C2=O	0.0
C[C@@H]1CN([C@@H](C)CO)C(=O)c2cc(NS(=O)(=O)c3cccs3)ccc2O[C@@H](C)CCCCO[C@@H]1CN(C)C(=O)Nc1ccc(F)cc1	-0.5
C#CCNC(=O)C1=C[C@H](c2coc3ccccc3c2=O)C[C@H](OCc2ccc(CO)cc2)O1	0.5
C[C@H](CO)N1C[C@H](C)[C@@H](CN(C)S(=O)(=O)c2cn(C)cn2)Oc2ccc(NC(=O)CCC(F)(F)F)cc2CC1=O	1.1
COc1ccc(S(=O)(=O)N(C)C[C@H]2Oc3ccc(N(C)C)cc3C(=O)N([C@H](C)CO)C[C@@H]2C)cc1	0.7
CC(C)NC(=O)Nc1ccc2c(c1)C(=O)N([C@@H](C)CO)C[C@@H](C)[C@@H](CN(C)C(=O)Nc1ccccc1)OCCCC[C@@H](C)O2	-0.1

(more compounds)
mol	A1 apoptosis 2
C[C@H](CO)N1C[C@H](C)[C@H](CN(C)S(=O)(=O)c2cccs2)Oc2ccc(NC(=O)CCCCCC(=O)Nc3ccccc3N)cc2CC1=O	-0.2
C[C@H](CO)N1C[C@H](C)[C@H](CN(C)C)Oc2ccc(NC(=O)CCC(F)(F)F)cc2C1=O	-1.0
Cc1noc(C)c1NC(=O)Nc1ccc2c(c1)CC(=O)N([C@@H](C)CO)C[C@H](C)[C@@H](CN(C)Cc1ccc(-c3ccccc3)cc1)O2	-1.1
Cc1noc(C)c1NC(=O)Nc1cccc2c1O[C@@H](CN(C)S(=O)(=O)c1cccs1)[C@@H](C)CN([C@H](C)CO)C2=O	0.8
C[C@H](CO)N1C[C@H](C)[C@@H](CN(C)S(=O)(=O)c2ccccc2)Oc2ccc(NC(=O)C3CC3)cc2CC1=O	-0.1
COc1ccc(NC(=O)Nc2ccc3c(c2)C(=O)N([C@H](C)CO)C[C@@H](C)[C@H](CN(C)C(=O)Nc2ccc(C(F)(F)F)cc2)OCCCC[C@@H](C)O3)cc1	2.0
O=C1O[C@H](c2ccccc2)[C@H](c2ccccc2)N2[C@H]1[C@@H](C(=O)NC[C@H](O)c1ccccc1)[C@]1(C(=O)Nc3ccc(C#CCCO)cc31)[C@H]2c1ccccc1OCCO	1.1
C[C@H](CO)N1C[C@H](C)[C@H](CN(C)C(=O)C2CCCCC2)OCCCC[C@H](C)Oc2ccc(NC(=O)Nc3cccc4ccccc34)cc2C1=O	-0.5
Cc1ccc(S(=O)(=O)Nc2cccc3c2O[C@@H](CN(C)C(=O)Nc2ccc4c(c2)OCO4)[C@@H](C)CN([C@H](C)CO)C3=O)cc1	-0.5
Cc1noc(C)c1NC(=O)Nc1ccc2c(c1)CC(=O)N([C@H](C)CO)C[C@@H](C)[C@H](CN(C)Cc1ccc(C(=O)O)cc1)O2	1.0
C[C@@H]1CCCCO[C@H](CN(C)S(=O)(=O)c2ccccc2)[C@@H](C)CN([C@H](C)CO)C(=O)c2cc(NC(=O)CCC(F)(F)F)ccc2O1	0.6
C[C@H]1CN([C@@H](C)CO)C(=O)Cc2cc(NC(=O)NC3CCCCC3)ccc2O[C@H]1CN(C)C(=O)Nc1ccccc1	1.0
C[C@@H]1CN([C@@H](C)CO)C(=O)c2cc(NC(=O)CCC(F)(F)F)ccc2O[C@@H](C)CCCCO[C@H]1CN(C)Cc1ccc(C(=O)O)cc1	-0.8
C[C@@H]1CN([C@@H](C)CO)C(=O)c2cccc(NC(=O)C3CC3)c2O[C@H]1CN(C)S(=O)(=O)c1ccc(F)cc1	-0.2
Cc1noc(C)c1NC(=O)N(C)C[C@@H]1Oc2ccc(NC(=O)Nc3cccc4ccccc34)cc2CC(=O)N([C@H](C)CO)C[C@@H]1C	0.6

Some of the entries so far, field by field.
C[C@H](CO)N1C[C@H](C)[C@H](CN(C)Cc2ccc(C(=O)O)cc2)Oc2c(NC(=O)Nc3ccc(C(F)(F)F)cc3)cccc2C1=O
  A1 apoptosis 2 = -1.1
C#CCNC(=O)C1=C[C@H](c2coc3ccccc3c2=O)C[C@H](OCc2ccc(CO)cc2)O1
  A1 apoptosis 2 = 0.5
C[C@@H]1CN([C@H](C)CO)C(=O)c2cc(NC(=O)NC3CCCCC3)ccc2O[C@@H]1CN(C)Cc1ccc(C(=O)O)cc1
  A1 apoptosis 2 = -0.9
C[C@H](CO)N1C[C@H](C)[C@@H](CN(C)S(=O)(=O)c2ccccc2)Oc2ccc(NC(=O)C3CC3)cc2CC1=O
  A1 apoptosis 2 = -0.1

(listing goes on)
mol	A1 apoptosis 2
C[C@H]1CN([C@@H](C)CO)C(=O)Cc2cc(NS(=O)(=O)c3ccccc3)ccc2O[C@@H]1CN(C)Cc1ccc(Cl)c(Cl)c1	-1.1
COc1ccc(NC(=O)N(C)C[C@@H]2OCc3cnnn3CCCC(=O)N([C@@H](C)CO)C[C@@H]2C)c(OC)c1	0.2
Cc1ccc(S(=O)(=O)N(C)C[C@H]2OCc3cn(nn3)CCCC(=O)N([C@H](C)CO)C[C@H]2C)cc1	1.0
C[C@@H]1CN([C@@H](C)CO)C(=O)c2cccc(NC(=O)c3nc4ccccc4s3)c2O[C@H]1CN(C)C(=O)NC1CCCCC1	-0.6
Cc1noc(C)c1S(=O)(=O)N(C)C[C@@H]1OCCCC[C@@H](C)Oc2ccc(NC(=O)Nc3ccc(F)cc3)cc2C(=O)N([C@H](C)CO)C[C@H]1C	0.4
COc1ccc(S(=O)(=O)Nc2ccc3c(c2)C(=O)N([C@H](C)CO)C[C@@H](C)[C@H](CN(C)C(=O)Nc2cccc4ccccc24)OCCCC[C@@H](C)O3)cc1	1.0
Cc1noc(C)c1NC(=O)N(C)C[C@H]1Oc2ccc(NC(=O)Cc3ccccc3)cc2C(=O)N([C@H](C)CO)C[C@H]1C	0.5
C[C@@H]1CN([C@H](C)CO)C(=O)CCCn2cc(nn2)CO[C@@H]1CN(C)C(=O)Nc1ccc(-c2cccs2)cc1	0.0
C[C@H](CO)N1C[C@H](C)[C@@H](CN(C)S(=O)(=O)c2ccc(F)cc2)Oc2ccc(NS(=O)(=O)c3cn(C)cn3)cc2CC1=O	0.3
C[C@@H]1CCCCO[C@@H](CN(C)C(=O)Nc2ccc(C(F)(F)F)cc2)[C@H](C)CN([C@@H](C)CO)C(=O)c2cc(NS(=O)(=O)c3cccs3)ccc2O1	-1.0
C[C@@H]1CCCCO[C@@H](CN(C)C(=O)Cc2ccccc2)[C@H](C)CN([C@H](C)CO)C(=O)c2cc(NC(=O)Nc3ccccc3)ccc2O1	-0.8
COc1ccc(S(=O)(=O)Nc2ccc3c(c2)C(=O)N([C@H](C)CO)C[C@@H](C)[C@@H](CN(C)C(=O)Nc2ccc(F)cc2)O3)cc1	1.9
C[C@H](CO)N1C[C@H](C)[C@@H](CN(C)Cc2cccc(C(=O)O)c2)OCc2cnnn2CCCC1=O	-0.3
C[C@H](CO)N1C[C@H](C)[C@H](CN(C)C(=O)Nc2ccc(F)cc2)Oc2c(NS(=O)(=O)c3cccs3)cccc2C1=O	-2.4
C[C@@H]1CCCCO[C@@H](CN(C)Cc2ccc3c(c2)OCO3)[C@@H](C)CN([C@@H](C)CO)C(=O)c2cc(NS(=O)(=O)c3ccc(Cl)cc3)ccc2O1	-1.3

Additional records.
mol	A1 apoptosis 2
C[C@H]1CN([C@@H](C)CO)C(=O)c2cc(N(C)C)ccc2O[C@H]1CN(C)S(C)(=O)=O	0.0
Cc1ccc(S(=O)(=O)Nc2ccc3c(c2)C(=O)N([C@H](C)CO)C[C@H](C)[C@@H](CN(C)C(=O)Nc2ccccc2)OCCCC[C@H](C)O3)cc1	-0.9
C[C@@H]1CCCCO[C@@H](CN(C)C(=O)Nc2ccc3c(c2)OCO3)[C@H](C)CN([C@H](C)CO)C(=O)c2cc(NS(=O)(=O)c3cccs3)ccc2O1	0.2
C[C@H]1CN([C@@H](C)CO)C(=O)c2cc(N(C)C)ccc2O[C@H]1CN(C)CC1CCCCC1	-1.4
Cc1noc(C)c1S(=O)(=O)Nc1ccc2c(c1)CC(=O)N([C@@H](C)CO)C[C@H](C)[C@H](CN(C)C(=O)Nc1ccccc1)O2	1.0
COc1ccc(S(=O)(=O)N(C)C[C@@H]2Oc3c(NC(=O)c4cnccn4)cccc3C(=O)N([C@@H](C)CO)C[C@H]2C)cc1	0.8
COc1ccc(CN(C)C[C@@H]2OCCCC[C@@H](C)Oc3ccc(NC(=O)Nc4ccccc4)cc3C(=O)N([C@@H](C)CO)C[C@H]2C)cc1	0.5
O=C(C1=C[C@@H](C2CCCCC2)C[C@@H](OCCCCO)O1)N1CCOCC1	1.2
